Cruzain inh Det: inhibitors of Trypanosoma cruzi cruzain with detergent; AID 1478; purified cruzain, Z-FR-AMC fluorescence, 0.01% Triton; P25779; actives 0.43% (n = 200,000); Potency, µM, without a hit: max response, negative = inhibition, actives largely listed as inhibitors;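 further: plate controls were neutral wells for no effect and buffer without enzyme for full effect; nearly all actives have a fitted effect of over 40% in size; top concentration of the series not given in the record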
Target sequence (P25779 123-467 limits assumed): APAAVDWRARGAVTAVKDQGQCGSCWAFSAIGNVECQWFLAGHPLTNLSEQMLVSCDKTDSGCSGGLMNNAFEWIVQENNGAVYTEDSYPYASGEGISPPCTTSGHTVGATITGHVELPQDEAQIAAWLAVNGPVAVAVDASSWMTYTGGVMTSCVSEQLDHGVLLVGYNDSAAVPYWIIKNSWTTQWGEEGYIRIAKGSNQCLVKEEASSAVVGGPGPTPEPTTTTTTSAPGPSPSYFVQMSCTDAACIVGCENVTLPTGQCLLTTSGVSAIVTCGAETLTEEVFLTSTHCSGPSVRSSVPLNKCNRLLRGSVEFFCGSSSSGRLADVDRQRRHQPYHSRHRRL
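Cysteine protease activity tested under reducing, mildly acidic conditions (100 mM sodium acetate pH 5.5, 5 mM DTT) plus 0.01% Triton X-100. Cruzain 1.5 nM; substrate Z-FR-AMC 2 uM; 15 min compound preincubation at room temperature.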
RE007 growth inh: less growth of the S. pombe RE007 Vpr strain | actives 0.21% (n = 360,000) | AID 651644 | Potency, µM (doses to about 92.2 µM), inactives show at the top dose activity change, negative = less growth | S. pombe RE007 Vpr strain, BacTiter-Glo ATP luminescence, 24 h; control for the full effect not named in the record; active = well fitted falling curve with a large enough effect; inconclusive = small, poorly fitted or top-dose-only effect; inactive = no such curve, though single readings can be large or run the other way;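 further: on the % scale 0 is the no-effect control and ±100 the full control effect; nearly all actives have a fitted effect of over 50% in size; the assay follows cell death caused by Vpr and the record does not say whether a fall means rescue or toxicity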
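Fission yeast RE007 carrying one integrated HIV-1 vpr copy, seeded at OD 0.01 in PMG+AL medium with 23 nL pinned compound. Grown 24 h at 30 degrees; viability read by BacTiter-Glo luminescence after 5 min.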
Lassa entry inh: blocks Lassa virus binding to or entry into cells. Lassa virus pseudotype entry inhibition, cell reporter; control for the full effect not named in the record. Potency, µM (doses to about 37.9 µM), for the others: at the highest dose activity change, negative = inhibition, actives largely listed as inhibitors. actives 1.2% (n = 300,000); active means well fitted inhibition curve with a large enough effect; inconclusive means small, poorly fitted or top-dose-only effect, or effect the other way; inactive means flat fitted curve, though single readings scatter; tested in HEK293 cells; further: on the % scale 0 is the no-effect control and ±100 the full control effect; nearly all actives have a fitted effect of over 50% in size; luciferase read-out
Cruzain inh noDet: blocks cruzain activity in detergent-free assay | actives 2.3% (n = 200,000) | purified cruzain, Z-FR-AMC fluorescence, no detergent | Potency, µM, for the others: max response, negative = inhibition, hits mostly inhibitors;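 further: plate controls were enzyme without inhibitor for no effect and buffer without enzyme for full effect; nearly all actives have a fitted effect of over 40% in size; top concentration of the series not given in the record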
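Purified cruzain at 1.5 nM, pre-incubated 15 min with compound at room temperature in 100 mM sodium acetate pH 5.5, 5 mM DTT, 0.00005% Triton X-100. Reaction started with 2 uM Z-FR-AMC; AMC fluorescence increase over 60 s gives rate.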
MARV entry inh: inhibitors of Marburg virus binding or cell entry | AID 540276 | actives 1.8% (n = 300,000) | Marburg virus pseudotyped entry inhibition, cell reporter; control for the full effect not named in the record; about a third of the inactives were read at about 46 µM | Potency, µM (doses to about 37.8 µM), for the others: at the top dose activity change, negative = inhibition, usual class: inhibitors; active = well fitted inhibition curve with a large enough effect; inconclusive = small, poorly fitted or top-dose-only effect, or effect the other way; inactive = flat fitted curve, though single readings scatter; tested in HEK293 cells; about a fifth of its hits are not listed in these tables; further: on the % scale 0 is the no-effect control and ±100 the full control effect; luciferase read-out
2A StopGo: lowers the luciferase signal of an FMDV 2A StopGo reporter | human cells with a luciferase reporter of 2A StopGo recoding; control for the full effect not named in the record | Potency, µM (titrated, usually from 57.9 µM), inactives show top-dose signal change, negative = less light | actives 1.2% (n = 410,000); active = well fitted falling curve with a large enough effect; inconclusive = small, poorly fitted or top-dose-only effect; inactive = no such curve, though single readings can be large or run the other way; tested in HEK293T cells; further: on the % scale 0 is the no-effect control and ±100 the full control effect; nearly all actives have a fitted effect of over 45% in size; luciferase light after 4 h
NS1 inh: inhibitors of influenza NS1 protein function; S. cerevisiae slowed by influenza A NS1, growth recovery by OD600; actives 0.4% (n = 270,000); Potency, µM (highest dose often 46.1 µM), for the others: at the highest dose activity, positive = more growth; active means well fitted rising curve with a large enough effect; inconclusive means small, poorly fitted or top-dose-only effect; inactive means no such curve, though single readings can be large or run the other way; further: nearly all actives have a fitted effect of over 50% in size
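S. cerevisiae expressing influenza A NS1, grown in glucose, washed, then diluted 1:100 into pH 6.0 -URA galactose medium with 23 nl compound. Growth recovery read as OD600; NS1-free strain serves as control.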
SARS PLP yeast: blocks SARS-CoV papain-like protease in a yeast assay; Potency, µM (top dose mostly 32.9 µM), inactives show at the top dose activity, positive = growth rescue; AID 485353; actives 0.19% (n = 330,000); S. cerevisiae expressing SARS-CoV PLpro, growth rescue; control for the full effect not named in the record; active means well fitted rising curve with a large enough effect; inconclusive means small, poorly fitted or top-dose-only effect; inactive means no such curve, though single readings can be large or run the other way; further: 0% is about no effect; nearly all actives have a fitted effect of over 55% in size; growth read by luminescence after 48 h
* hit, by the source's call; & = joins results of further samples; [ ] = dose if it differs, or a comment. Unless noted, the call rests on the fitted dose curve; in most records, active means well fitted curve in the direction sought with a large enough effect; inconclusive means small, poorly fitted or top-dose-only effect, or another doubt; inactive means no such curve, though single readings can be large; an effect the other way counts as inactive or inconclusive. Potency means the concentration at half of the fitted maximal effect.

For CC1CCN(C(=O)C2CCC(C)(C(=O)O)C2(C)C)CC1 (centres undefined) the results were Cruzain inh Det -4.0%, RE007 growth inh 13%, Lassa entry inh inconclusive, Cruzain inh noDet 3%, MARV entry inh 1%, 2A StopGo 0%, NS1 inh 4% and SARS PLP yeast 7%.
`Cc1sc2nc(C(C)C)nc(SCC(=O)NCc3ccco3)c2c1C` gave Cruzain inh Det -3.7%, RE007 growth inh 14%, Lassa entry inh -1%, Cruzain inh noDet -2%, MARV entry inh -22%, NS1 inh -19% and SARS PLP yeast -10%.
Screening CCOC(=O)N1CCN(C(=O)CN(c2ccc(Cl)c(C(F)(F)F)c2)S(C)(=O)=O)CC1 returned Cruzain inh Det -2.4%, RE007 growth inh -16%, Lassa entry inh 1%, Cruzain inh noDet inconclusive, MARV entry inh inconclusive, 2A StopGo -25%, NS1 inh -1% and SARS PLP yeast -5%.
Screening Cc1ccccc1CNC(=O)C(=O)NCC(c1ccco1)S(=O)(=O)c1ccc(F)cc1 (centres undefined) returned Cruzain inh Det -3.6%, Lassa entry inh inconclusive, Cruzain inh noDet -10% and 2A StopGo -29%.
Screening Cc1cccn2c(=O)c(/C=C(\C#N)C(N)=O)c(N3CCCCCC3)nc12 returned RE007 growth inh -3%, 2A StopGo inconclusive, NS1 inh 4% and SARS PLP yeast -2%.
For CCOc1ccc(-c2cn(-c3ccc(OC)cc3)c(SCC(=O)Nc3ccccc3Cl)n2)cc1 the results were Cruzain inh Det 0.2%, Lassa entry inh -4%[46.1 µM], Cruzain inh noDet inconclusive and 2A StopGo 33%[activator].
`COc1ccc(C(=O)NNC(=O)c2cccc3ccccc23)cc1` gave RE007 growth inh 3%, Lassa entry inh -8%[46.1 µM], MARV entry inh inconclusive and 2A StopGo 14%.
For O=C(Cn1nnc(-c2ccc(Cl)cc2)n1)NC1CC2CCC1C2 (centres undefined) the results were Cruzain inh Det 5.4%, RE007 growth inh 26%, Lassa entry inh -9%, Cruzain inh noDet 1%, MARV entry inh -15%, 2A StopGo 0%, NS1 inh -16% and SARS PLP yeast 6%.
For O=C(COc1ccccc1)NC(NC(=S)Nc1ccccc1O)C(Cl)(Cl)Cl (centres undefined) the results were Cruzain inh Det -7.2%, RE007 growth inh 15%, Lassa entry inh inconclusive, Cruzain inh noDet 6%, MARV entry inh inconclusive, 2A StopGo 14%, NS1 inh -5% and SARS PLP yeast -3%.
Screening CCOc1ccc(-n2c(C)nc3cc(C(=O)NC4CCCC4)ccc32)cc1 returned Cruzain inh Det -3.3%, Lassa entry inh -17%[46.1 µM], Cruzain inh noDet 2% and 2A StopGo -2%.
O=C(Cn1cccc1C(=O)c1ccccc1)NCCc1ccc(Cl)cc1 was read as RE007 growth inh 1%, Lassa entry inh 7%[46.1 µM], MARV entry inh 16%[46.1 µM], 2A StopGo -4%, NS1 inh 5% and SARS PLP yeast 0%.
CC(OC(=O)CSc1ccccc1)C(=O)NC1CCCCC1C (centres undefined) was read as RE007 growth inh 7%, Lassa entry inh 3%, MARV entry inh 1%, 2A StopGo -15% and SARS PLP yeast 8%.
Screening CC(C)C(=O)NCc1cc(-c2ccccc2)no1 returned RE007 growth inh 11%, Lassa entry inh 9%[46.1 µM], MARV entry inh -28%[46.1 µM], 2A StopGo 5%, NS1 inh 3% and SARS PLP yeast -1%.
`C/C(=N\NC(=O)c1nnn(-c2nonc2N)c1C(C)C)c1cc(C)sc1C` gave RE007 growth inh 9%, Lassa entry inh inconclusive, MARV entry inh -18%[46.1 µM], 2A StopGo -17%, NS1 inh -3% and SARS PLP yeast 7%.
C=CCSc1ncc(C(=O)OCC)c(N)n1 was read as RE007 growth inh 3%, Lassa entry inh -19%, MARV entry inh -14%[46.1 µM], 2A StopGo 47%[activator], NS1 inh 2% and SARS PLP yeast 0%.
`COc1ccc(NC(=O)C(NC(C)=O)C(=O)NCc2ccccc2)cc1` (centres undefined) gave Cruzain inh Det -0.1%, RE007 growth inh -9%, Lassa entry inh 0%, Cruzain inh noDet -2%, MARV entry inh -7%, 2A StopGo -5%, NS1 inh -3% and SARS PLP yeast 1%.
COc1ccc(C=CC(=O)C=CC=Cc2ccccc2)cc1 was read as RE007 growth inh 14%, Lassa entry inh inconclusive, MARV entry inh inconclusive and 2A StopGo -10%.
`Cc1ccc(NC(=S)Nc2ncccc2C)c(C)c1` gave Cruzain inh Det -1.2%, RE007 growth inh -26%, Lassa entry inh 12%, Cruzain inh noDet -1%, MARV entry inh -29%, NS1 inh -37% and SARS PLP yeast 16%.
O=C(COc1ccc(Cl)c(Cl)c1)NN1C(=O)C2C(C1=O)C1C=CC2C12CC2 (centres undefined) was read as RE007 growth inh -1%, 2A StopGo 0%, NS1 inh 1% and SARS PLP yeast -2%.
For CCCC1c2ccsc2CCN1C(=S)NC (centres undefined) the results were RE007 growth inh 4%, Lassa entry inh 24%[46.1 µM], MARV entry inh 1%[46.1 µM], 2A StopGo -1%, NS1 inh -1% and SARS PLP yeast 0%.
Screening CCOC(=O)c1cc(C#N)c(N2CCNCC2)nc1C(F)(F)F returned RE007 growth inh -3%, Lassa entry inh 13%[46.1 µM], MARV entry inh 13%[46.1 µM], 2A StopGo -2%, NS1 inh -6% and SARS PLP yeast 1%.
For COc1cccc(OCc2nn3c(=O)c(-c4ccccc4)nnc3s2)c1 the results were RE007 growth inh 5%, Lassa entry inh 16%[46.1 µM], MARV entry inh 17%[46.1 µM], 2A StopGo 6%, NS1 inh 2% and SARS PLP yeast 1%.
`CC(C)c1ccc(S(=O)(=O)Nc2ccc(N3CCOCC3)cc2)cc1` gave RE007 growth inh 6%, Lassa entry inh -8%, MARV entry inh inconclusive, 2A StopGo 0%, NS1 inh 6% and SARS PLP yeast -15%.
CC(C)OCCCNC(=O)CN1CCN(Cc2ccc(Cl)cc2)C1=O was read as RE007 growth inh -2%, Lassa entry inh inconclusive, MARV entry inh -16%, 2A StopGo -23%, NS1 inh -2% and SARS PLP yeast 2%.
For Cc1ccc2c(CSc3nnc(C4CC4)n3N)cc(=O)oc2c1 the results were Cruzain inh Det -4.8%, RE007 growth inh -10%, Lassa entry inh 20%, Cruzain inh noDet -16%, MARV entry inh -14%, NS1 inh 1% and SARS PLP yeast 2%.
`CC(C)(C)c1ccc(-c2nc(SCC(=O)Nc3ccccc3F)n3[nH]c(=O)cc3n2)cc1` gave Cruzain inh Det -1.9%, Lassa entry inh 12%[46.1 µM], Cruzain inh noDet -20% and 2A StopGo -16%.
O=S(=O)(c1ccccc1)N(CC1CO1)c1cc(Cl)ccc1Cl (centres undefined) was read as RE007 growth inh -28%, Lassa entry inh -7%, MARV entry inh inconclusive, 2A StopGo 0%, NS1 inh 8% and SARS PLP yeast -2%.
For Cc1cc(C(=O)N/N=C/c2ccc(Cl)c([N+](=O)[O-])c2)c(C)n1-c1ccc(F)cc1 the results were Cruzain inh Det 0.5%, RE007 growth inh 3%, Lassa entry inh 13µM*, Cruzain inh noDet 7.9µM*, MARV entry inh inconclusive, 2A StopGo -32%, NS1 inh 6% and SARS PLP yeast 3%.
`COc1ccccc1CCNC(=O)CSc1ccc(-c2ccco2)nn1` gave RE007 growth inh 2%, Lassa entry inh -2%, MARV entry inh 15%[46.1 µM], 2A StopGo -13% and SARS PLP yeast 1%.
Screening CCCc1nc2ccc(NC(C)=O)cc2c(=O)n1Cc1ccccc1Cl returned RE007 growth inh 9%, 2A StopGo 11%, NS1 inh -22% and SARS PLP yeast -4%.
COc1cc(OC)c(NC2=C(c3ccc(C(F)(F)F)cc3)C(=O)c3ccccc32)cc1Cl was read as Cruzain inh Det -8.4%, Lassa entry inh -12%[46.1 µM], Cruzain inh noDet -1%, MARV entry inh 5%[46.1 µM] and 2A StopGo inconclusive.
Screening CSc1n[nH]c(NCc2ccc(Cl)cc2)n1 returned Cruzain inh Det -2.4%, RE007 growth inh 0%[3.69 µM], Lassa entry inh 16%, Cruzain inh noDet -6%, MARV entry inh 15%, 2A StopGo 15%, NS1 inh 3% and SARS PLP yeast 25%.
`c1coc(-c2nnc(SCc3cn4ccccc4n3)o2)c1` gave Cruzain inh Det 11%, RE007 growth inh -21%, Lassa entry inh 5%, Cruzain inh noDet -11%, MARV entry inh -8%, 2A StopGo 10%, NS1 inh -14% and SARS PLP yeast -2%.
`COC(=O)c1ccc(N2CCN(C)CC2)c([N+](=O)[O-])c1` gave RE007 growth inh 2%, Lassa entry inh 0%, MARV entry inh 15%[46.1 µM], 2A StopGo -10% and SARS PLP yeast 0%.
Screening CCN1CCC[C@H]1CNC(=O)c1c(OC)ccc(Br)c1OC returned Cruzain inh Det 0.8%&1.8%, RE007 growth inh -7%[18.4 µM], Cruzain inh noDet 2%&-14% and 2A StopGo -22%&6%.
For O=C(c1cc(-c2cccs2)on1)N1CCc2ccccc2C1 the results were Cruzain inh Det -6.5%, RE007 growth inh -2%, Lassa entry inh 15%, Cruzain inh noDet -18%, MARV entry inh 14%, 2A StopGo 55%[activator], NS1 inh -36% and SARS PLP yeast -14%.
Screening CN(C)c1cccc2c1c(NC(=O)Nc1ccccc1)nn2C returned RE007 growth inh 2%, 2A StopGo 3%, NS1 inh 0% and SARS PLP yeast -1%.
`Cc1ccccc1-n1c(O)c(/C=C/C=Nc2ccccc2)c(=O)[nH]c1=O` gave Cruzain inh Det -20%, RE007 growth inh -12%, Lassa entry inh 2%, Cruzain inh noDet -12%, MARV entry inh 1%, 2A StopGo -9%, NS1 inh 17% and SARS PLP yeast -15%.
Screening NS(=O)(=O)c1cccc(NC(=O)c2cccc(S(=O)(=O)N3CCCCCC3)c2)c1 returned RE007 growth inh 4%, Lassa entry inh -23%, MARV entry inh 5%, 2A StopGo -16% and SARS PLP yeast 5%.
`COc1cc(C=O)ccc1OCCOCCOc1cc(C)ccc1Cl` gave Cruzain inh Det -8.6%, RE007 growth inh -18%, Lassa entry inh -17%, Cruzain inh noDet 22%, MARV entry inh -4%, 2A StopGo inconclusive, NS1 inh -90% and SARS PLP yeast -1%.

Random draw from the library; 4.5% or so of the library scored in one or more.
